KCNQ2 pot – enhances the rat KCNQ2 potassium channel | O88943 | CHO-K1 KCNQ2, FluxOR thallium flux fluorescence; stronger effect = higher value | B-score at 10 µM | hit rate 0.54% among 310,000;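 active means fluorescence ratio B-score at least 3 SD of library B-scores, with initial fluorescence B-score within 3 SD, cut at about 5.3 in these data; same plate scores as AID 2156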;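 further: B-score of peak minus minimum over baseline fluorescence ratio after K+ and Tl+ stimulus; positive B-score means potentiation of KCNQ2 with more thallium influx and brighter signal; only the inactives scoring about 0 or higher are listed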
Target sequence (O88943 whole entry, looked up): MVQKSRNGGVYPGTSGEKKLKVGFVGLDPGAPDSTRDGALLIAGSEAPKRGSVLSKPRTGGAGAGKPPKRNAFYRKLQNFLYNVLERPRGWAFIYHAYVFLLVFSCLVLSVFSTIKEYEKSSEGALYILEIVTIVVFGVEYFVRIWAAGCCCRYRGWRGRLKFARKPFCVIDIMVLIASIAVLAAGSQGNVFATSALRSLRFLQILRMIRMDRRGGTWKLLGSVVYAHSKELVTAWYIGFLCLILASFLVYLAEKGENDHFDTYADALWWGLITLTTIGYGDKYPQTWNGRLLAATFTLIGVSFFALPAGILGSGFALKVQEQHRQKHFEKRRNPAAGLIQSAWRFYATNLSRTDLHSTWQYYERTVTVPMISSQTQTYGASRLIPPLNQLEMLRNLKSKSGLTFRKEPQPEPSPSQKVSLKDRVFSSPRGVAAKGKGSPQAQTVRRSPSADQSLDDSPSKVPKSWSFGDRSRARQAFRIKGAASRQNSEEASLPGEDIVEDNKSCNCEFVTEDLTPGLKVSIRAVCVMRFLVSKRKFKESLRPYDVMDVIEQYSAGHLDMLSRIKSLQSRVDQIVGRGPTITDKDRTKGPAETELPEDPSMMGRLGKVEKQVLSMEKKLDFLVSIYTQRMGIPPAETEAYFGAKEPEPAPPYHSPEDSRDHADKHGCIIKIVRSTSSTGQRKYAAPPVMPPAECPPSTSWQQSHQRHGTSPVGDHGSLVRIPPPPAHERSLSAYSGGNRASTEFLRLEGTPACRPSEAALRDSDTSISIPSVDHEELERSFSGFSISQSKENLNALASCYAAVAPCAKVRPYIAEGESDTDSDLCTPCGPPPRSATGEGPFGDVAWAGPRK
KCNQ2 pot baseline – recorded beside KCNQ2 pot, whose call it bears; B-score; compound at 10 µM; measured here: initial fluorescence intensity artifact check;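 brightness before thallium and not channel activity; 0 = typical well and far values either way flag optical interference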
* = called active by the depositor.

KCNQ2 pot | KCNQ2 pot baseline | mol
0.62 | 1 | CCc1cc(C(=O)NNC(=O)CCN2CCN(c3ccccc3)CC2)sc1C
1.18 | 0.89 | O=C(Nc1cc(F)ccc1F)C1CCCO1 (centres undefined)
1.09 | -0.48 | CCN(c1ccccc1)S(=O)(=O)c1ccc(C(=O)Oc2ccc(C(C)=O)cc2)cc1
1.55 | -0.21 | Cc1ccnc(NC(=O)CNC(=O)c2ccc3c(c2)OCO3)c1
0.02 | -1.1 | CCNS(=O)(=O)c1ccc(CCC(=O)N2CCOCC2)cc1
0.79 | 0.36 | CSc1nc2ccc(S(=O)(=O)N(C)C)cc2s1
1.1 | 0.47 | Nc1ccccc1-c1nnc2n1CCCCC2
0.93 | 0.01 | Cc1ccc2[nH]c(=O)c3cc(C(=O)NCC4CCCO4)sc3c2c1 (centres undefined)
0.38 | 0.76 | COc1ccc(NC(=O)c2nc[nH]c2C(=O)N2CCN(C(=O)OC(C)(C)C)CC2)cc1
0.69 | -1.63 | O=C(NC1CCCC1)C(c1ccccc1)N(C(=O)c1ccno1)c1cccnc1 (centres undefined)
0.24 | -0.08 | CCOc1cccc(CNc2nnnn2C)c1
0.21 | -1.5 | COc1ccccc1/C=C/C(=O)NC(=S)Nc1ccc(S(=O)(=O)N(C)c2ccccc2)cc1
0.17 | 0.03 | CCc1ccccc1NC(=O)C1CC(c2ccc(F)cc2)=NO1 (centres undefined)
1.24 | 0.38 | CCn1c(Oc2cccc(Br)c2)nc2c1c(=O)n(C)c(=O)n2C
1.17 | -1.95 | NC(=O)C1CCN(C(=O)N2c3ccccc3Sc3ccccc32)CC1
1.42 | -0.07 | CCN1CNC(=S)N(c2cc(C)ccc2C)C1
0.03 | -0.38 | CCOC(=O)c1c(NC(=O)CSc2nc3c(c(=O)n(C)c(=O)n3C)n2CC)sc(C)c1C
0.03 | -1.37 | COCCCn1c(SCC(=O)N2CCCCC2C)nnc1-c1ccco1 (centres undefined)
1.61 | -0.11 | COc1ccc(C(=O)N/N=C/c2ccccn2)cc1OC
0.45 | -0.15 | COc1ccc(C)cc1S(=O)(=O)N(C)CC(=O)NCc1ccncc1
0.03 | 0.73 | O=C(N1CCOCC1)C(F)(F)C(F)(F)C(F)(F)C(F)(F)C(=O)N1CCOCC1
0.04 | 0.48 | CC(=O)N1CCc2cc(S(=O)(=O)NCCC(=O)Nc3cc(C)cc(C)c3)ccc21
1.17 | -0.51 | CC(=O)Nc1ccccc1C(=O)C(=O)Nc1cccc(C(=O)NCc2ccccc2)c1
0.23 | -0.23 | O=C(/C=C/c1ccccc1)NNC(=O)c1ccco1
0.83 | 0.29 | COc1cc2c(cc1OC)CN(CC(=O)NC(=O)NCc1ccccc1)CC2
2.38 | -0.94 | O=C(O)c1ccccc1S(=O)(=O)NCC(O)COC1CCCCC1 (centres undefined)
0.28 | -0.14 | CCCCCSc1nncc(=O)[nH]1
0.37 | 1.09 | O=C(NNC(=S)Nc1ccccc1)Nc1ccccc1
0.76 | -0.02 | Cc1ccc(CN2C(=O)N/C(=C/c3ccc4c(c3)n(C)c(=O)n4C)C2=O)cc1
0.41 | 2.59 | O=C(CN(C(=O)CCC(=O)Nc1ccccn1)C1CCCC1)NCc1ccc(F)cc1
0.15 | -0.15 | Cc1ccccc1C(=O)NC1CC2CCCC(C1)N2C(=O)Nc1ccccc1 (centres undefined)
1.35 | 1.13 | CN(C)CCCNC(=O)c1ccc(=O)[nH]n1
0.25 | 0.62 | CC1CCc2c(sc3ncnc(NCCN4CCOCC4)c23)C1 (centres undefined)
0.27 | 0.28 | O=C1c2ccccc2S(=O)(=O)N1Cc1ccccc1[N+](=O)[O-]
0.38 | -0.5 | Cc1ccc(S(=O)(=O)N2CCN(C(=O)c3sccc3-c3ccccc3)CC2)cc1
0.01 | -1.24 | Cc1nc(SCC(=O)c2cc3ccccc3oc2=O)c(C#N)c(-c2ccccc2)c1C(=O)Nc1ccccc1
1.23 | -0.68 | CC(c1ccccc1)n1c(N2CCN(C)CC2)nc2c1c(=O)[nH]c(=O)n2C (centres undefined)
0.04 | -0.19 | CSc1nc(O)c(Cc2ccccc2)c(=O)[nH]1
0.03 | -0.59 | COc1ccc(CC(=O)Nc2nc3ccc(F)cc3s2)cc1S(=O)(=O)N1CCOCC1
0.82 | -0.94 | Cn1c(SCc2ccc(F)cc2)nnc1-c1ccncc1
0.61 | 1.22 | CC(C)(C)n1nc2c(c1NC(=O)c1ccccc1S(=O)(=O)C(F)F)CS(=O)(=O)C2
0.05 | -0.03 | O=C(NN=C1CCCC1)c1cccs1
0.35 | 0.03 | O=C(NC1CCCCC1)N1CCN(c2ccccc2)CC1
0.22 | 1.91 | C/C(=N\NC(=O)c1nn(C)c(C)c1Br)c1ccc(NC(=O)c2ccc(C)s2)cc1
1.3 | 1.35 | O=c1[nH]c2cc([N+](=O)[O-])c(NCCO)c([N+](=O)[O-])c2[nH]1
1.53 | -1.27 | COC(C[C@H]1O[C@H]1[C@@H](O)[C@@H](C)OCc1ccccc1)OC
1.69 | 0.46 | CC1=C(C(=O)OC2CCCCC2)C(c2cccc([N+](=O)[O-])c2)NC(=O)N1 (centres undefined)
0.85 | -0.9 | CS(=O)(=O)c1ccc(Cl)c(NC(=O)COC(=O)c2cccc(C#N)c2)c1
1.09 | -1.39 | CCCCCOC(=O)c1ccc(OC(=O)c2cncc(Br)c2)cc1
1.58 | -1.18 | COc1ccc(-n2nnnc2SCC(=O)NCCc2ccccc2)cc1OC
1.79 | -0.87 | CN(C)CCCNC(=S)N(CCCO)Cc1cc2cc3c(cc2[nH]c1=O)OCO3
0.14 | -0.19 | Cc1cc(S(=O)(=O)N2CCC(NC(=O)C34CC5CC(CC(C5)C3)C4)CC2)ccc1-n1cnnn1
0.97 | -0.06 | COc1ccc(C2=NS(=O)(=O)N(C)C(C(=O)NCc3ccccn3)=C2)cc1
0.01 | 1.86 | Cc1cccc(CS(=O)(=O)Cc2ccc(C(=O)NCc3ccccc3)o2)c1
2.29 | -1.35 | COc1ccc2c(c1)c(=O)oc1c(C)c(OC(C)C(=O)NCC3CCC(C(=O)O)CC3)ccc12 (centres undefined)
1.1 | 0.02 | CCCCC(=O)Nc1ccc(C(=O)NCC(=O)OC)cc1
0.02 | -0.14 | O=C(O)CCC(=O)NN1C(=O)c2ccccc2NC1c1ccco1 (centres undefined)
1.27 | 0.02 | C#CCn1c(C)cc(C)c(S(=O)(=O)c2ccccc2)c1=O
1.76 | 1.63 | Cc1cccc(C)c1NC(=O)C(c1ccc([N+](=O)[O-])cc1)N1CCCCC1 (centres undefined)
1.11 | -1.63 | N#CCC(=O)Nc1ccc(C(=O)OCC(=O)NCCCc2ccccc2)cc1

More structures follow:
KCNQ2 pot | KCNQ2 pot baseline | mol
0.06 | -1.42 | CC1=C(C(=O)OCC2CCCO2)C(c2ccc(O)cc2)NC(=O)N1 (centres undefined)
0.74 | -0.02 | CCN(CC)CCOc1c(Br)ccc2c1sc1nc3n(c(=O)c12)CCC3
0.1 | 0.77 | CCOc1ccc(C(=O)N2CCN(c3ncccn3)CC2)cc1
0.46 | 1.65 | CS(=O)(=O)CCC(C(=O)OCc1ccc(Cl)cc1)N1C(=O)c2ccccc2C1=O (centres undefined)
1.01 | -2.12 | CCOC(=O)c1c(C)[nH]c(C(=O)COC(=O)CCC(=O)c2ccc3c(c2)OCCO3)c1C
0.29 | -0.08 | CC(C)CN(C(=O)COC(=O)CCCc1c[nH]c2ccccc12)c1c(N)n(Cc2ccccc2)c(=O)[nH]c1=O
1.55 | -1.23 | O=C(c1cc(-c2ccc(Cl)c(Cl)c2)on1)N1CCCCCC1
1.11 | -1.42 | CCOC(=O)Cc1csc(NC(=O)CSc2ncnc3c2cnn3-c2ccccc2Cl)n1
1.04 | -3.82 | CCCCCCSc1ccc([C@H]2N[C@@](CC(C)C)(C(=O)OC)[C@H]3C(=O)N(CC)C(=O)[C@@H]23)cc1
1.08 | 0 | Cc1nn(Cc2ccc(F)cc2)c(C)c1NC(=O)c1nn(C)cc1Cl
0.79 | -1.09 | COc1ccccc1NC(=O)C[n+]1ccccc1C
1.12 | -2.43 | C/C(N)=C(/C#N)C(=O)COC(=O)CCC1CCCC1
0.33 | 1.25 | CCCCn1c(-c2ccccc2)nnc1-c1ccccc1
1.99 | -1.88 | O=C(Nc1nc2ccc(Br)cc2s1)c1ccco1
0.27 | 0.86 | CC(=O)OC1c2ccccc2C(=O)N1c1ccccc1C (centres undefined)
0.4 | 0.21 | NC(=O)C1CCN(C(=O)COc2ccc3c4c(c(=O)oc3c2)CCC4)CC1
0.83 | -0.19 | N#CCSc1nc2sccc2c(=O)n1-c1ccccc1
0.76 | -0.09 | Cc1cc(NC(=O)COC(=O)c2oc3c(Cl)cccc3c2C)no1
1.37 | 0.09 | CCn1cc(Cl)c(C(=O)Nc2ccc3c(c2)OCCO3)n1
8.79* | -1.05* | O=C(NCc1ccc(Cl)cc1)c1ccccc1Oc1ccccc1
0.24 | -0.94 | O=C(NCCCN1CCOCC1)c1ccc(Br)s1
0.22 | -0.6 | COCCN(C(=O)COC(=O)CCCOc1ccc(OC)cc1)c1c(N)n(Cc2ccccc2)c(=O)[nH]c1=O
1.02 | -0.11 | O=C(COC(=O)C1CC2C=CC1C2)Nc1cccc(S(=O)(=O)N2CCOCC2)c1 (centres undefined)
0.06 | -1.41 | O=[N+]([O-])c1cc([N+](=O)[O-])c(Oc2c(F)cc(F)cc2F)cc1NN1CCCCC1
0.57 | -0.65 | O=C(COc1ccc(C(=S)N2CCCC2)cc1)Nc1ccccc1C(F)(F)F
0.84 | -2.41 | Cn1ncc2c(Nc3ccc(O)cc3)nc(Cl)nc21
1.77 | -1.53 | COc1ccc(-n2c(=O)[nH]c3c(C(N)=O)nc(C4CCCCC4)nc32)cc1
0.45 | -0.46 | CN1CCN(/N=C/c2ccc(C#N)cc2)CC1
5.58* | -1.23* | Oc1ccc(Cc2ccc(Cl)cc2)c(O)c1
0.84 | -0.01 | COc1cccc(/C=N/NC(=O)c2cnccn2)c1

Already shown: entries from further up.
KCNQ2 pot | KCNQ2 pot baseline | mol
0.62 | 1 | CCc1cc(C(=O)NNC(=O)CCN2CCN(c3ccccc3)CC2)sc1C
1.18 | 0.89 | O=C(Nc1cc(F)ccc1F)C1CCCO1 (centres undefined)
1.09 | -0.48 | CCN(c1ccccc1)S(=O)(=O)c1ccc(C(=O)Oc2ccc(C(C)=O)cc2)cc1
1.55 | -0.21 | Cc1ccnc(NC(=O)CNC(=O)c2ccc3c(c2)OCO3)c1

The listing picks up; the 4 compounds before the break are reprinted first.
KCNQ2 pot | KCNQ2 pot baseline | mol
1.77 | -1.53 | COc1ccc(-n2c(=O)[nH]c3c(C(N)=O)nc(C4CCCCC4)nc32)cc1
0.45 | -0.46 | CN1CCN(/N=C/c2ccc(C#N)cc2)CC1
5.58* | -1.23* | Oc1ccc(Cc2ccc(Cl)cc2)c(O)c1
0.84 | -0.01 | COc1cccc(/C=N/NC(=O)c2cnccn2)c1
0.39 | 0.52 | Cn1c(SCC(=O)NC2CCCCC2)nnc1-c1cc2cc(Cl)ccc2o1
1.12 | -1.76 | COc1cccc(-c2nn(C)c3sc(C(=O)NCc4ccc5c(c4)OCO5)cc23)c1
0.67 | 0.15 | CNC(=O)c1sccc1-n1cccc1
0.02 | -3.09 | O=C(Nc1ccc(F)cc1)N1CCCCCC1
3.17 | 1.36 | Oc1c(N=NC(=S)Nc2ccccc2F)c2ccccc2n1Cc1ccccc1F
0.42 | 0.26 | O=C(CN(CCc1ccccc1)C(=O)CNS(=O)(=O)c1ccc(F)cc1)NCC1CCCO1 (centres undefined)
0.01 | -2.07 | COCc1cc(C)nc2sc(C(=O)NCCO)c(-n3cccc3)c12
0.98 | -0.84 | CCCCCSc1nnc(N)s1
0.44 | -0.75 | Cc1ccc(C)c(NC(=O)CCC(=O)NN=C2CCCC2)c1
0.92 | -2.07 | CCc1cccc(C)c1NC(=O)Nc1ccc2c(c1)OCO2
1.84 | -0.11 | Cc1c(Cl)cccc1NC(=S)N=Nc1c(O)n(CN2CCOCC2)c2ccccc12
0.02 | -0.81 | CC(C)COC(=O)C(N)C(C(=O)OCC(C)C)c1ccccc1 (centres undefined)
0.04 | 1 | O=C(CSc1nc(C2CC2)nc2ccccc12)Nc1ccccc1Cl
1.01 | -0.59 | CN(CCCNC(=O)c1ccc(/C=N/O)nc1)CCCN(C)Cc1ccccc1
0.31 | -0.52 | CCOc1ccc(S(=O)(=O)N2CCC(C(=O)NCC3CCCO3)CC2)cc1Cl (centres undefined)
0.75 | 0.42 | O=C(NCc1cccc(Cl)c1)c1ccco1
0.18 | 1.63 | Cc1ccc(C(=O)NCCNC(=O)CN2CCOCC2)cc1
1.33 | 1.53 | Cc1nc[nH]c(=O)c1Br
1.43 | 0.23 | CC(C)C(=O)Nc1cccc(NC(=O)c2cccc(F)c2)c1
0.73 | -1.4 | CCCN(C(=O)Cc1c(C(=O)O)n(C)c2ccccc12)c1cccc(C)c1
1.06 | 0.46 | CCCCCCC(=O)NNC(=O)c1c(O)c2ccccc2n(CC)c1=O
0.94 | -0.83 | COc1cnc(-c2ccccn2)nc1Sc1c(Cl)cccc1Cl
0.16 | 1.61 | COc1ccc(CNC(=O)CN(c2ccc(C(C)C)cc2)S(=O)(=O)c2c(C)noc2C)cc1
1.52 | -0.16 | C=CCn1c(C(CCCC)CC(O)COCC(C)C)n[nH]c1=S (centres undefined)
1.05 | -0.07 | O=C(c1ccc(Cl)c(Cl)c1)N1CCC(=O)N(C(CO)Cc2ccccc2)CC1 (centres undefined)
0.45 | -2.08 | O=C(Nc1ccc(C2SCCS2)cc1)c1ccccc1
0.79 | 1.95 | O=S1(=O)C=C(Sc2nc3cc(Cl)ccc3o2)c2ccccc21
1.83 | 0.05 | N#C/C(=C/c1cccs1)c1ccccn1
0.15 | -0.69 | O=C(CSCc1ccccc1)NCCc1ccc(F)cc1
1.27 | 1.89 | COc1ccc(Cl)cc1NC(=O)CN(C)CC(=O)Nc1ccc(C)cc1Br

From PubChem BioAssay

Only part of the results is shown; rates above refer to the full screens.
